Bioassay records: PubChem BioAssay, National Center for Advancing Translational Sciences (NCATS)
SARS PLpro yeast – qHTS of Yeast-based Assay for SARS-CoV PLP; S. cerevisiae expressing SARS-CoV PLpro, growth rescue; control for the full effect not named in the record; Potency, µM (titrated, usually from 32.9 µM), without a hit: at the top dose activity, positive = growth rescue; hit rate 0.19% among 330,000; AID 485353, 2010; active means well fitted rising curve with a large enough effect; inconclusive means small, poorly fitted or top-dose-only effect; inactive means no such curve, though single readings can be large or run the other way; note: 0% is about no effect; nearly all actives have a fitted effect of over 55% in size; growth read by luminescence after 48 h
RE007 growth inh – qHTS Assay for Inhibitors of the HIV-1 protein Vpr | S. pombe RE007 Vpr strain, BacTiter-Glo ATP luminescence, 24 h; control for the full effect not named in the record | Potency, µM (doses to about 92.2 µM), for inactives: at the highest dose activity change, negative = less growth | hit rate 0.21% among 360,000; active = well fitted falling curve with a large enough effect; inconclusive = small, poorly fitted or top-dose-only effect; inactive = no such curve, though single readings can be large or run the other way;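 note: % is set by controls: 0 for no effect and ±100 for the full control effect; nearly all actives have a fitted effect of over 50% in size; the assay follows cell death caused by Vpr and the record does not say whether a fall means rescue or toxicity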
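Fission yeast strain RE007, carrying one chromosomally integrated HIV-1 vpr copy, was seeded at OD 0.01 in PMG+AL medium with 23 nL pinned compound. After 24 h at 30 °C and 99% humidity, viability was read by BacTiter-Glo luminescence.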
StopGo reporter – High Throughput Screening for Foot and Mouth Disease Virus Antivirals; human cells with a luciferase reporter of 2A StopGo recoding; control for the full effect not named in the record; AID 1159524, 2015; hit rate 1.2% among 410,000; Potency, µM (doses to about 57.9 µM), without a hit: top-dose signal change, negative = less light; active = well fitted falling curve with a large enough effect; inconclusive = small, poorly fitted or top-dose-only effect; inactive = no such curve, though single readings can be large or run the other way; tested in HEK293T cells; note: % is set by controls: 0 for no effect and ±100 for the full control effect; nearly all actives have a fitted effect of over 45% in size; luciferase light after 4 h
Cruzain inh Det – qHTS Assay for Promiscuous and Specific Inhibitors of Cruzain (with detergent) | hit rate 0.43% among 200,000 | Potency, µM, inactives show max response, negative = inhibition, actives largely listed as inhibitors | purified cruzain, Z-FR-AMC fluorescence, 0.01% Triton;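 note: plate controls were neutral wells for no effect and buffer without enzyme for full effect; nearly all actives have a fitted effect of over 40% in size; top concentration of the series not given in the record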
Target sequence (P25779 123-467 limits assumed): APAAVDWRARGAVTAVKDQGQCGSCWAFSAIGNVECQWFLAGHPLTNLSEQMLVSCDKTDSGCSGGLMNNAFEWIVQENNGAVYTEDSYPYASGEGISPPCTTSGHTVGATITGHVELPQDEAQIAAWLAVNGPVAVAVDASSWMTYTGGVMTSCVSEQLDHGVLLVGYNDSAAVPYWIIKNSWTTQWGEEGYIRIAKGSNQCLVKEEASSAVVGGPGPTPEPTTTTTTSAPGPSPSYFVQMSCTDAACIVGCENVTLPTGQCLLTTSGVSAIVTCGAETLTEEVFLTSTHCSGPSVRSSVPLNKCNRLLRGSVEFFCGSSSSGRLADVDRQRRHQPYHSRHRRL
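Enzyme 1.5 nM, Z-FR-AMC 2 uM, NaOAc 100 mM pH 5.5, DTT 5 mM, Triton X-100 0.01%; 15 min RT compound preincubation; kinetic ex360/em450, 60 s delta.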
Cruzain inh noDet – qHTS Assay for Promiscuous and Specific Inhibitors of Cruzain (without detergent) | Cruzipain (Trypanosoma cruzi), P25779 | purified cruzain, Z-FR-AMC fluorescence, no detergent | Potency, µM, without a hit: max response, negative = inhibition, hits mostly inhibitors | hit rate 2.3% among 200,000 | AID 1476, 2009;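 note: plate controls were enzyme without inhibitor for no effect and buffer without enzyme for full effect; nearly all actives have a fitted effect of over 40% in size; top concentration of the series not given in the record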
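Purified cruzain at 1.5 nM, pre-incubated 15 min with compound at room temperature in 100 mM sodium acetate pH 5.5, 5 mM DTT, 0.00005% Triton X-100. Reaction started with 2 uM Z-FR-AMC; AMC fluorescence increase over 60 s gives rate.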
NS1 inh – qHTS Assay for Inhibitors of Influenza NS1 Protein Function | S. cerevisiae slowed by influenza A NS1, growth recovery by OD600 | Potency, µM (top dose mostly 46.1 µM), without a hit: at the highest dose activity, positive = more growth | hit rate 0.4% among 270,000; active means well fitted rising curve with a large enough effect; inconclusive means small, poorly fitted or top-dose-only effect; inactive means no such curve, though single readings can be large or run the other way; note: nearly all actives have a fitted effect of over 50% in size
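A cell-based growth assay was used: compounds that relieve NS1-induced slow growth of budding yeast raise OD600. Assay medium was yeast nitrogen base with ammonium sulphate and -URA supplement, pH 6.0, with 2% galactose.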
MARV entry inh – qHTS for inhibitors of binding or entry into cells for Marburg Virus; Marburg virus pseudotyped entry inhibition, cell reporter; control for the full effect not named in the record; about a third of the inactives were read at about 46 µM; hit rate 1.8% among 300,000; Potency, µM (titrated, usually from 37.8 µM), inactives show top-dose activity change, negative = inhibition, most hits filed as inhibitors; active = well fitted inhibition curve with a large enough effect; inconclusive = small, poorly fitted or top-dose-only effect, or effect the other way; inactive = flat fitted curve, though single readings scatter; tested in HEK293 cells; about a fifth of its hits are not listed in these tables; note: % is set by controls: 0 for no effect and ±100 for the full control effect; luciferase read-out
Lassa entry inh – qHTS for Inhibitors of binding or entry into cells for Lassa Virus; Lassa virus pseudotype entry inhibition, cell reporter; control for the full effect not named in the record; hit rate 1.2% among 300,000; Potency, µM (highest dose often 37.9 µM), inactives show at the top dose activity change, negative = inhibition, usual class: inhibitors; active means well fitted inhibition curve with a large enough effect; inconclusive means small, poorly fitted or top-dose-only effect, or effect the other way; inactive means flat fitted curve, though single readings scatter; tested in HEK293 cells; note: % is set by controls: 0 for no effect and ±100 for the full control effect; nearly all actives have a fitted effect of over 50% in size; luciferase read-out
An asterisk follows results filed as active; ? = inconclusive; · = no result given; [ ] = dose if it differs, or a comment. Unless noted, calls come from the whole dose curve; as a rule, active = well fitted curve in the direction sought with a large enough effect; inconclusive = small, poorly fitted or top-dose-only effect, or another doubt; inactive = no such curve, though single readings can be large; an effect the other way counts as inactive or inconclusive. Potency is the fitted concentration of half-maximal effect.

Each structure is followed by: RE007 growth inh	Cruzain inh noDet	StopGo reporter	Lassa entry inh	NS1 inh	Cruzain inh Det	MARV entry inh	SARS PLpro yeast
CC(=O)Nc1nonc1-c1nnc(SCC(=O)Nc2cc(C)ccc2C)n1-c1ccccc1
    ·	?	?	3.1%[46.1 µM]	·	-0.9%	4.9%[46.1 µM]	·
CCOC(=O)N1CCC(O)(c2cc(C)c(C)cc2C)CC1
    4.4%	18.0%	?	2.2%	-11.8%	1.3%	-21.5%	0.7%
CCOC(=O)c1ccc(CNC(=O)CSc2nc(NC(=O)c3ccccc3)c3c(C)c(C)oc3n2)cc1
    9.7%	21.8%	-5.9%	-3.8%	8.6%	-2.8%	-12.1%	-0.2%
CCc1nnc(NC(=O)CN2CCC(O)(c3ccccc3OC)CC2)s1
    10.4%	4.7%	·	16.0%	2.8%	0.6%	0.7%	20.8%
COc1ccc(-n2c(Cc3cccs3)nnc2SCC(=O)Nc2ccc3c(c2)OCCO3)cc1
    12.3%	-7.4%	-10.2%	?	-2.0%	-1.5%	?	0.6%
COc1ccccc1NC(=O)Cn1nc(-c2ccc(C)cc2)c2c(c1=O)CCCC2
    ·	-0.6%	-18.9%	22.9%[46.1 µM]	·	-2.0%	-1.6%[46.1 µM]	·
Cc1ccccc1C(=O)Nc1ccc2nc3n(c(=O)c2c1)CCC3
    -7.7%	-10.5%	19.8%	·	-29.5%	2.8%	·	-12.7%
O=C(NC1CCCCC1)C(c1ccccc1)N1CCC2(CC1)OCCO2 (centres undefined)
    ·	7.2%	11.4%	9.3%	-8.0%	6.0%	-0.1%	0.4%
O=C(Nc1ccccc1N1CCCCC1)c1cccc(OC(F)F)c1
    21.0%	·	?	-21.7%	-6.5%	·	-7.8%[46.1 µM]	-7.3%
CCc1ccc(OCC(=O)N(Cc2ccc(C(C)C)cc2)C2CCS(=O)(=O)C2)cc1 (centres undefined)
    ·	?	-21.4%	-26.4%[46.1 µM]	·	-12.4%	?	·
COc1ccc(-c2nc3cc(NC(=O)c4ccc5c(c4)OCO5)ccc3o2)cc1
    -18.6%	-24.3%	37.6%[activator]	-23.7%	2.4%	1.5%	?	-1.5%
O=C(Nc1nccs1)c1ccc(Cl)c(S(=O)(=O)N2CCCCC2)c1
    4.8%	-6.2%	?	?	14.6%	-2.7%	-25.6%[46.1 µM]	·
CC1=NNC(=O)C1CCC(=O)N/N=C/C(Br)=C/c1ccccc1 (centres undefined)
    18.9%	-1.5%	-21.4%	-3.1%	2.9%	-6.8%	8.1%	-53.1%
COc1ccc(/C=C/C(=O)Nc2cccc(S(=O)(=O)N3CCCC3)c2)cc1OC
    9.5%	·	?	?	·	·	?	-0.7%
CC(=O)c1c(C)nc(-c2ccc(Cl)cc2)nc1NC(=O)C(C)C
    -21.1%	1.3%	6.5%	-0.3%	2.2%	-8.6%	-14.6%[46.1 µM]	2.0%
Cc1c(C(=O)Oc2ccc(-c3cnc4ccccc4n3)cc2)cccc1[N+](=O)[O-]
    1.1%	?	52.5%[activator]	?	-9.7%	1.1%	1.4%[46.1 µM]	-15.6%
CCc1ccc2[nH]c(C)c(CN3CCCCCC3)c(=O)c2c1
    -5.3%	·	-19.1%	·	5.6%	·	·	-0.7%
O=C(c1cccnc1)N1CCCC(Nc2ccc(F)cc2)C1 (centres undefined)
    -8.3%	·	3.1%	22.1%[46.1 µM]	17.0%	·	8.0%[46.1 µM]	-1.4%
N#CC1=C(N)SC(N)=C(C#N)C1c1cccc(Oc2ccccc2)c1
    9.8%	25.1µM*	·	12.4%	-10.0%	-18.1%	-5.7%	-26.1%
N#CC1=C(N)C(C#N)(C#N)C(c2cccnc2)C2COCC=C12 (centres undefined)
    -8.4%	-7.9%	-19.9%	9.4%	-1.8%	-3.6%	?	4.0%

The list goes on.
Each structure is followed by: RE007 growth inh	Cruzain inh noDet	StopGo reporter	Lassa entry inh	NS1 inh	Cruzain inh Det	MARV entry inh	SARS PLpro yeast
O=C(NCCO)C(=O)NCC(c1ccc2c(c1)OCO2)N1CCN(c2ccc(F)cc2)CC1 (centres undefined)
    -17.9%	·	-2.2%	·	-6.9%	·	·	1.2%
CCN(CC)c1ccc(S(=O)(=O)N2CCOCC2)cc1NC(=O)CN1C(=O)NC2(CCCC2)C1=O
    -1.0%	·	5.2%	-6.7%	-5.9%	·	-2.2%	2.9%
COc1ccccc1NC(=O)c1sc2nc3c(c(C(F)(F)F)c2c1N)CN(C(C)=O)CC3
    ·	-5.1%	-12.2%	21.3%[46.1 µM]	·	-3.3%	-1.5%[46.1 µM]	·
CCOc1ccccc1CNS(=O)(=O)c1cc2c(cc1C)NC(=O)CO2
    ·	-14.9%	27.9%	?	·	-0.3%	·	·
Cc1ccsc1/C=N/NC(=O)c1nnn(-c2nonc2N)c1C
    -1.4%	·	0.0%	17.5%	-3.7%	·	2.5%[46.1 µM]	-1.2%
O=C(NN=Cc1ccc(N(CCCl)CCCl)cc1)c1cccnc1
    8.6%	·	12.2%	?	·	·	5.62µM*	·
CCOc1ccc(CNC(=O)c2cccc(NC(=O)N3CCSc4ncccc43)c2)cc1OC
    ·	-20.8%	14.1µM*	?	·	-21.2%	·	·
CCc1cc(C(=O)OC)c(NC(=O)CC2SC(=NC)N(C)C2=O)s1 (centres undefined)
    -0.4%	·	5.0%	13.1%[46.1 µM]	-1.4%	·	-9.6%[46.1 µM]	0.7%
COc1cccc2cc(C(=O)NCc3ccc(Cl)cc3)c(=N)oc12
    -14.7%	·	?	?	?	·	-27.5%[46.1 µM]	10.0%
O=S(=O)(NCc1nnc2ccccn12)c1ccc(Cl)cc1
    20.7%	·	-9.9%	-3.5%	·	·	?	3.6%
O=C1CC(=Nc2ccccc2)NN1c1ccccc1
    -3.5%	-23.4%	-17.4%	13.3%	11.3%	-9.0%	-33.4%	-2.9%
COc1cccc(NC(=O)CN(C)C(=O)CC2Sc3ccccc3NC2=O)c1 (centres undefined)
    -27.0%	·	11.1%	-0.2%	·	·	-0.7%	0.7%
COc1ccc(C(=O)COC(=O)CCCn2c(=O)oc3ccccc32)cc1
    -5.9%	-12.1%	-17.6%	7.2%	-17.7%	-5.4%	0.3%	2.9%
COc1ccc(NC(=O)c2nnn(CC(=O)Nc3c(C)cc(C)cc3C)c2N)cc1OC
    ·	7.0%	-2.6%	6.3%[46.1 µM]	·	-4.2%	·	·
COc1ccc(-n2c(=O)c3ccc(C(=O)NCc4ccc(C)cc4)cc3n(CC(=O)Nc3cccc(F)c3)c2=O)cc1
    ·	-12.1%	50.8%[activator]	4.9%[46.1 µM]	·	-1.5%	?	·
CCOC(=O)c1c(C)[nH]c(C(=O)OCc2ccccc2F)c1C
    ?	·	26.3%	10µM*	6.2%	·	?	4.0%
COc1ccc(CCNC(=O)C(C)OC(=O)c2cccs2)cc1OC (centres undefined)
    -16.2%	·	-10.0%	-14.3%[46.1 µM]	8.3%	·	?	1.6%
COc1cccc(S(=O)(=O)Nc2cccc(C(=O)N3CCCCCC3)c2)c1
    -26.1%	-8.0%	34.1%[activator]	-6.1%	0.0%	-0.6%	12.6%	-2.4%
CCCN(C(=O)Cc1ccc(S(=O)(=O)N2CCOCC2)s1)c1c(N)n(Cc2ccccc2)c(=O)[nH]c1=O
    2.8%	·	-9.5%	9.2%	·	·	27.5%	·
CC(C)(C)c1ccc(S(=O)(=O)O/N=C2/CCCCC2c2ccc([N+](=O)[O-])cc2[N+](=O)[O-])cc1 (centres undefined)
    -18.0%	-1.3%	-14.7%	-2.5%	7.3%	-3.8%	-7.7%	2.8%

Additional results follow:
Each structure is followed by: RE007 growth inh	Cruzain inh noDet	StopGo reporter	Lassa entry inh	NS1 inh	Cruzain inh Det	MARV entry inh	SARS PLpro yeast
O=C(CSc1nnc(Cc2ccc3c(c2)OCO3)n1C1CCCCC1)NC1CCCC1
    14.8%	-5.0%	-9.9%	-1.8%	-12.9%	-0.8%	-3.2%	0.9%
NNC(=O)CN1C(c2cccc(Cl)c2)=Nc2ccc(Br)cc2C1c1ccccc1 (centres undefined)
    -6.4%	-3.5%	-8.9%	-0.7%	25.2%	-20.2%	-31.3%	-5.6%
Cc1nc(Nc2nc(-c3ccccc3)cc(=O)[nH]2)nc2ccccc12
    1.2%	·	-13.1%	?	-33.4%	·	?	·
COc1ccc(NC(=O)CN(c2ccc(C)cc2)S(=O)(=O)c2cccs2)cc1
    ·	-8.6%	14.1%	-2.3%[46.1 µM]	·	-2.0%	-14.6%[46.1 µM]	·
Cc1ncc(CN2CCCC(C(=O)Nc3ccc(-c4cccc(F)c4)cc3)C2)cn1 (centres undefined)
    -5.6%	·	-24.0%	?	-35.3%	·	?	7.5%
Cc1c(C(=O)N2CCCCC2)c(S(=O)(=O)N(C)Cc2ccco2)c(C)n1C
    -8.0%	·	6.2%	25.8%[46.1 µM]	-2.7%	·	2.9%[46.1 µM]	-3.2%
Cc1ccc(NC(=O)Cn2c(C)cc(C)c(C#N)c2=O)cc1F
    ·	3.2%	-12.2%	-5.1%[46.1 µM]	·	-5.0%	·	·
Cc1ccc2c(CC(=O)Nc3ccc(N4CCN(C)CC4)cc3C)coc2c1
    -22.0%	25.1µM*	23.7%	?	7.5%	0.8%	?	-1.3%
Cc1ccc2oc(C(=O)N(C)Cc3ccc(C)o3)c(C)c2c1
    ?	·	4.0%	·	-1.4%	·	·	-34.5%
Cc1ccc(NC(=O)c2ccc(CNS(=O)(=O)c3ccc4c(c3)C(C)(C)C(=O)N4C)cc2)cc1F
    ·	8.8%	25.1µM*	-12.8%[46.1 µM]	·	-5.4%	·	·
O=C(Cn1c(-c2ccco2)nc2ccccc21)N1CCCCC1
    -2.3%	2.2%	1.1%	4.2%	-2.3%	7.4%	-0.2%	6.5%
